Screens: PubChem, several laboratories
UCH37 DUB inh: blocks the human deubiquitinase UCH37; Q9Y5K5; purified proteasome/UCH37, Ub-AMC cleavage fluorescence; inhibition, % (concentration not given with the values); actives 0.33% (n = 330,000);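 active = mean of two replicates above 20%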;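 also: 0% = compound-free wells with enzyme and 100% = wells lacking proteasome; stock transfer was 100 nL into about 20 µL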
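Material: human UCH37 enzyme supplied as purified proteasome complex / Amount: 0.15 nM proteasome as dispensed / Buffer or medium: pH 7.4 Tris-HCl (50 mM) with ovalbumin, ATP-MgCl2, DTT / Times: preincubation 30 min, reaction 25 min, room temperature / Technique: AMC fluorescence from Ub-AMC cleavage, excitation 355 nm, emission 460 nm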
HNF4A DNA FP: change in binding of human HNF4 alpha to DNA. P41235. HNF4a-FITC DNA binding, fluorescence polarization, 1 h. activity change, % at 10 µM. actives 0.3% (n = 360,000). AID 1224865; in the data active = activity change above about 30%, passing the limit was not always enough;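 also: controls were the assay level and a saturating level of protein; the project sought stronger binding though the title names inhibitors; some compounds called inactive have numbers as strong as hits; positive values seem to mean higher polarization but the record does not say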
Target sequence (P41235 whole entry, looked up): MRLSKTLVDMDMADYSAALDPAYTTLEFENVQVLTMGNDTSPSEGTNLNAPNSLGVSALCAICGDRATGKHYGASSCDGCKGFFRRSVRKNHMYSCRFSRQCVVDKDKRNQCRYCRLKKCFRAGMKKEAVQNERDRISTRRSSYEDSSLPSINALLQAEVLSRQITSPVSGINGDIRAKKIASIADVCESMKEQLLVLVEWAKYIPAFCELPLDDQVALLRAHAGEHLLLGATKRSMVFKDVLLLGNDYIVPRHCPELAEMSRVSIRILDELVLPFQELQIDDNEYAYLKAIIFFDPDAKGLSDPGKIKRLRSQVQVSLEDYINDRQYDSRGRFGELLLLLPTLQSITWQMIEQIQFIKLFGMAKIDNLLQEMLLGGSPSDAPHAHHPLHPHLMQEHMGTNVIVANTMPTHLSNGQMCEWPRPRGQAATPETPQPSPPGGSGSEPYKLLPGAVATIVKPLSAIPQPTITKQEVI
Vif TR-FRET: inhibitors of Vif binding to APOBEC3G peptide, primary screen, biochemical, TR-FRET, GST-Vif 1-94, biotin-A3G peptide, dose response retest (AID 1117319) | TR-FRET GST-Vif / biotin-A3G peptide binding; higher % means a stronger effect; test concentration not given here; strong numbers were not always called active | inhibition, %; hits with a dose series show IC50 in µM | actives 0.57% (n = 260,000);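 active = above the screen mean plus three standard deviations and confirmed in dose response; inconclusive = results disagree or hit not tested in dose response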;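 also: Vif residues 1-94 fused to GST binding biotinylated APOBEC3G peptide 110-148; 0% = full assay without inhibitor and 100% = GST in place of GST-Vif; retest series ran down from 100 µM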
LANA-H2A inh: blocks KSHV LANA binding to histone H2A/H2B; Q9QR71; cell-free LANA-H2A/H2B peptide, fluorescence polarization; inhibition, % (no concentration beside the values); actives 0.6% (n = 320,000); in the data active = inhibition mostly above about 10%, no sharp cut-off; inactive = mostly below about 6.7%;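 also: stock transfer was 7.5 nL into about 10 µL; 0% = median of vehicle wells and 100% = median of positive control wells; one replicate is shown; the record names a cut of 25% in any replicate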
Bfl-1 A1 inh: inhibitors of the anti-apoptotic protein A1, read as caspase activation; caspase activation, % (test concentration not listed); MEF A1-2A-BIM cells, Caspase-Glo 3/7 luminescence, 3 h; percent of clofoctol response, vehicle zero; actives 0.066% (n = 330,000);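 active = over half of replicate activation scores above 10%, or exactly half above 10 with the replicate mean above 10; inconclusive = replicate mean below 10 yet half the replicates above 10; inactive = over half of replicates below 10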;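 also: wells of about 30 µL received 50 nL stock; many hits fall short of the cut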
E coli growth: E. coli growth inhibition; actives 0.21% (n = 330,000); OD600 absorbance (no concentration beside the values); Escherichia coli growth, OD600, 23 h; active compounds read low; AID 1053175;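 active = OD600 absorbance below the run mean of sample wells minus 3.6 SD, in any replicate, cut at about 0.56 in these data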;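 also: stock transfer was 300 nL into about 60 µL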
Beta2AR agonist: activates human beta-2 adrenergic receptor causing internalization | P07550 | Am2.2-beta2AR cells, FAP receptor internalization, flow cytometry; reference of the scale not given here | response, % (test concentration not listed) | actives 0.43% (n = 340,000) | AID 504454;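 active = response above a set limit, near 3 SD of response in nonfluorescent compounds, cut at about 42% in these data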;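 also: stock transfer was 100 nL into about 11 µL; a reference agonist was the positive control; negative values mostly stem from fluorescent compounds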
Target sequence (P07550 whole entry, looked up): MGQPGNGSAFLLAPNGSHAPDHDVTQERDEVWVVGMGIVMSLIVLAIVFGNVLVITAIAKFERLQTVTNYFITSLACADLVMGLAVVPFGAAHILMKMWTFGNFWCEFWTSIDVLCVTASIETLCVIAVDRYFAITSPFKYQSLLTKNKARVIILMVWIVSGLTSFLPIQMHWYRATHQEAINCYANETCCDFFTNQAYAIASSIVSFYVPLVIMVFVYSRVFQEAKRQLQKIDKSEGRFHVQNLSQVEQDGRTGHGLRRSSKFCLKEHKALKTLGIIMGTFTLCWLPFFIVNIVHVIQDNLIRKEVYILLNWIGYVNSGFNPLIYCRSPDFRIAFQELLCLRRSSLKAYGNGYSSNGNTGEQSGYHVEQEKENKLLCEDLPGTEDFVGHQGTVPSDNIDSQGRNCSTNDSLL
* marks the source's active call; other numbers are inactive results; i = inactive; ? = inconclusive; nt = no result given.

SMILES	UCH37 DUB inh	HNF4A DNA FP	Vif TR-FRET	LANA-H2A inh	Bfl-1 A1 inh	E coli growth	Beta2AR agonist
CN1CCN(C(=O)C2=C[C@H](c3ccc4c(c3)OCO4)C[C@H](OCc3ccc(CO)cc3)O2)CC1	1.5	0.5	-6%	-2.2	0.0	nt	-8
O=C(/C=C/c1ccco1)NC(=S)Nc1ccccc1Br	2.6	-0.7	1%	-3.1	-0.3	0.6	13
COc1cc(C(=O)O)cc(NC(=O)c2cccs2)c1OC	3.1	-1.8	-5%	5.1	-0.4	0.66	-1
COc1ccc(OC)c(NC(=O)C(CCSC)NS(=O)(=O)c2cccs2)c1 (stereo not drawn)	-0.4	2.3	nt	-2.7	0.0	0.67	20
COC(=O)c1ccc(CSc2nnc(NC(=O)C3CC(=O)N(Cc4ccc(C)cc4)C3)s2)cc1 (stereo not drawn)	0.2	0.0	nt	-1.3	0.2	0.69	7
Cc1cc(C)n2nc(C(=O)OC(C)C(=O)c3ccccc3)nc2n1 (stereo not drawn)	-3.5	-4.5	0%	0.1	-0.2	0.69	-8
COc1ccccc1N1CCN(Cc2cc3c(cc2Br)OCCO3)CC1	0.7	1.1	nt	-0.9	-0.4	0.63	7
COc1ccc(C(=O)C2CCCN(Cc3cn(C)nc3-c3ccccc3)C2)cc1F (stereo not drawn)	2.0	2.9	-3%	0.4	-3.2	0.68	-4
CCCC(C)C(=O)Nc1ccc(C(N)=O)cc1 (stereo not drawn)	4.3	3.0	?	3.5	-0.2	0.72	-2
CCN(CC)S(=O)(=O)c1ccc(N2CCOCC2)c(NC(=O)COc2ccccc2)c1	3.1	2.2	-11%	-1.5	-0.1	0.66	-3
COc1cc(N/C(N)=N/c2nc(C)cc(C)n2)c(OC)cc1Cl	0.4	2.2	nt	3.4	-0.1	0.65	3
COc1ccc(-n2c(=O)c3ccccc3c3ccccc3c2=O)cc1	-0.5	2.0	nt	2.9	0.6	nt	1
Cc1ccc(S(=O)(=O)N(C)c2ccc(C(=O)O)cc2)cc1	1.5	-5.2	-5%	3.2	1.3	0.65	-2
O=C(O)c1cc2n(n1)C(C(F)(F)F)CC(C1CC1)N2 (stereo not drawn)	0.5	-0.5	0%	-1.2	1.0	0.7	1
Cc1ccc(C(=O)Nc2ccc(N3CCN(C)CC3)cc2)cc1	nt	1.7	4%	-2.3	1.4	nt	7

Later entries:
SMILES	UCH37 DUB inh	HNF4A DNA FP	Vif TR-FRET	LANA-H2A inh	Bfl-1 A1 inh	E coli growth	Beta2AR agonist
O=C(COC(=O)CCSc1ccc(Cl)cc1)NCc1ccco1	0.4	-3.2	4%	-0.4	-0.8	0.63	-1
CCOc1ccc(NC(=O)CCC(=O)N/N=C2\CCCc3ccccc32)cc1	nt	-1.2	nt	3.2	0.9	nt	0
CCCCn1c(N)c(N(CCOC)C(=O)c2ccc(N3CCCC3=O)cc2)c(=O)[nH]c1=O	1.3	1.1	0%	0.0	-1.3	0.71	1
CCOC(=O)c1c(C)[nH]c(C)c1C(=O)COC(=O)/C=C/c1cccc(C(F)(F)F)c1	-1.8	2.8	8%	i	-0.2	0.69	-12
O=C(NCc1ccc2c(c1)OCO2)c1cnc2ccccn2c1=O	8.0	-2.9	7%	-1.5	2.0	0.74	-8
Cc1ccc2oc(C(=O)NC3CCS(=O)(=O)C3)cc(=O)c2c1 (stereo not drawn)	-0.8	1.8	-5%	1.1	1.6	0.7	0
O=C(CCCN1C(=O)/C(=C/c2cccs2)SC1=S)Nc1cccc(O)c1	2.1	2.1	nt	0.1	0.4	0.7	2
CCc1nnc(NC(=O)CSc2nnc(-c3c[nH]c4ccccc34)n2CC)s1	3.4	-3.6	20%	-8.3	0.7	0.71	1
COc1ccc(CC(=O)Nc2nc3ccccc3s2)cc1S(=O)(=O)N1CCOCC1	2.9	-1.6	9%	-2.6	-0.8	0.72	-11
O=C(NNS(=O)(=O)c1ccc(Br)cc1)c1cccs1	nt	0.4	?	17*	0.3	nt	-7
Cc1cccc([C@H](NC(=O)OC(C)(C)C)C(=O)OC(C)(C)C)c1	1.8	3.4	nt	-1.9	0.8	nt	-2
COc1cc(/C=C(/C#N)c2ccc(C)cc2)ccc1Oc1ccc([N+](=O)[O-])cn1	6.2	3.2	-4%	1.5	0.5	0.69	-3
CS(=O)(=O)N1CCN(C(=O)C2c3ccccc3Oc3ccccc32)CC1	-1.1	1.9	-4%	-3.3	0.7	0.73	-6
CNc1nc(-c2ccc3c(c2)CCN3C(=O)c2cccc(F)c2)cs1	1.9	5.0	?	-1.7	-0.8	0.71	6
Cc1ccc(S(=O)(=O)N2CCN(C(=O)CN3C(=O)NC(C)(c4ccc5ccccc5c4)C3=O)CC2)cc1 (stereo not drawn)	2.4	-3.6	nt	nt	nt	0.73	-6

Next records.
SMILES	UCH37 DUB inh	HNF4A DNA FP	Vif TR-FRET	LANA-H2A inh	Bfl-1 A1 inh	E coli growth	Beta2AR agonist
O=C(NCC(c1ccco1)N1CCCC1)c1ccc(Cl)cc1 (stereo not drawn)	0.7	3.5	27%	-2.2	0.1	0.69	3
COc1ccccc1CNC(=O)COc1ccccc1OC	-0.6	0.8	30%	0.5	-0.2	0.68	-6
CCN(c1ccc(OC)cc1)S(=O)(=O)c1cc(-c2cc(C)no2)ccc1C(C)C	5.4	1.4	nt	0.8	-0.1	0.72	3
CCC(C)NC(=O)CSc1nc2cc(S(=O)(=O)N3CCOCC3)ccc2n1CC (stereo not drawn)	2.9	3.8	-6%	-17	0.6	0.7	6
Nc1c(C(=O)CSc2nnc(-c3ccccc3F)o2)c(=O)[nH]c(=O)n1C1CC1	1.4	-0.1	-10%	nt	-0.6	0.7	-4
CS(=O)(=O)Nc1cccc(C2=NN(C(=O)c3cccc(F)c3)C(c3cccs3)C2)c1 (stereo not drawn)	1.1	-2.1	0%	1.5	0.2	0.68	10
Cc1ccc(-c2cc(-c3n[nH]c(=S)o3)c3ccccc3n2)cc1	-2.7	1.1	nt	-0.4	0.6	0.7	-3
CCN1C(=O)CC(N2CCC(Nc3ccc(OC)cc3)CC2)C1=O (stereo not drawn)	1.4	2.2	11%	-3.9	0.0	0.77	0
Cc1ccc(NC(=O)CSc2ncc(S(=O)(=O)c3ccccc3)c(=O)[nH]2)cc1C	1.8	0.1	nt	-3.7	1.2	0.71	-7
COCCn1c(C)cc(C(=O)COC(=O)C2CC(=O)N(CCc3ccc(OC)c(OC)c3)C2)c1C (stereo not drawn)	4.9	-0.3	2%	3.8	-0.2	0.69	11
CCOc1cccc(-c2nnc3sc(COc4ccc(C)cc4)nn23)c1	6.6	0.8	-9%	0.7	-0.7	0.78	-9
Cc1nc2ccccc2n1CCc1nc2c3ccccc3nc(SCC(=O)NCc3ccco3)n2n1	4.7	2.6	3%	4.8	-0.7	0.66	-4
CN(C)C1=NCCN1CCCCc1ccccc1	2.1	-1.9	nt	-5.5	0.0	0.71	-1
O=C(CCS(=O)(=O)c1ccccc1)N1CCCc2ccccc21	0.0	0.2	nt	0.2	-0.4	0.7	-5
Cc1cc(=O)oc2c(C)c(OC(C)C(=O)NC3CCN(Cc4ccccc4)CC3)ccc12 (stereo not drawn)	2.1	2.6	nt	0.2	1.0	0.7	-6

Other results:
SMILES	UCH37 DUB inh	HNF4A DNA FP	Vif TR-FRET	LANA-H2A inh	Bfl-1 A1 inh	E coli growth	Beta2AR agonist
CCOc1ccc2c(C)cc(=O)oc2c1OCC	-6.7	1.3	-1%	4.6	0.1	0.71	2
S=C(NCCc1c[nH]c2ccccc12)NC1CCCCC1	0.0	-4.8	nt	-2.2	0.1	0.7	0
COc1ccc(S(=O)(=O)N2CCCCC2)cc1NC(=O)C1CC1C (stereo not drawn)	3.0	-0.3	-6%	nt	nt	0.69	3
CCN(CC)CC(O)COc1ccc2c(c1)OCO2 (stereo not drawn)	5.2	0.2	-1%	1.7	0.0	0.73	9
CCN(CC)c1ccc(/C=N/NC(=O)c2cc3ccccc3[nH]2)cc1	nt	-2.0	nt	0.1	0.1	nt	6
Cc1ccc(S(=O)(=O)NC(=O)COc2ccccc2C)cc1	2.8	1.4	-1%	-6.4	0.1	0.71	-4
O=C1CN(C(=O)NCCC(=O)NC2CCCCC2)c2ccccc2N1	1.1	0.7	nt	-1.3	0.1	0.72	-2
COc1ccc(C(=O)Nc2ccc(Cl)c(S(=O)(=O)N3CCOCC3)c2)cc1	-0.2	1.9	-6%	4.6	-0.5	0.67	20
Cc1sc(NC(=O)C2CCCCC2)c(C#N)c1-c1ccccc1	0.7	1.3	-11%	-6.8	0.1	0.67	4
O=C1C=C(O)c2cccc(O)c2C1=O	nt	-8.6	nt	-1.6	-0.2	nt	1
Cc1cc(C)n(C(=O)CNC(=O)/C=C/c2ccccc2)n1	0.1	11	-8%	7.9	-0.6	0.67	3
Cc1cc([N+](=O)[O-])nn1Cc1ccc(C(=O)N/N=C/c2ccccc2)cc1	nt	1.2	23%	3.5	-0.2	nt	4
CCOc1nc(-c2ccc(C)cc2)ccc1-c1noc(COC)n1	-31	5.6	13%	-2.4	0.2	0.71	5
CCOC(=O)Cc1cc(-c2ccccc2)nc2ccc3ccccc3c12	-10	0.2	1%	0.8	-0.3	0.69	1
COc1cccc(CNC(=O)C2CCCN(S(=O)(=O)c3c(C)n[nH]c3C)C2)c1 (stereo not drawn)	2.4	0.4	3%	5.6	-0.6	0.72	7

(continued)
SMILES	UCH37 DUB inh	HNF4A DNA FP	Vif TR-FRET	LANA-H2A inh	Bfl-1 A1 inh	E coli growth	Beta2AR agonist
O=C(c1ccccc1)C(C(=O)N1CCc2ccccc2C1)n1ccccc1=O (stereo not drawn)	2.5	-3.3	nt	4.0	0.3	0.71	10
CCOc1ccc(C(=O)NCC(=O)N2CCN(C/C=C/c3ccccc3)CC2)cc1OCC	2.1	3.8	nt	2.8	0.4	0.65	-5
CCN(CC)c1ccc(S(=O)(=O)N2CCOCC2)cc1NC(=O)CSc1nncn1C	3.2	3.7	-9%	-3.7	1.5	0.65	-2
COc1ccc(CCN(C)C(=O)c2c(C)nn(-c3ccccc3)c2C)cc1OC	1.7	2.4	nt	-8.2	-0.7	0.7	-3
COc1ccc(NC(=O)CSCc2ccc(C)cc2)cc1	2.5	3.1	11%	-4.4	0.5	0.63	-6
COC(=O)C1=C(C)N(Cc2ccccc2)C(=NCc2cc(OC)c(OC)c(OC)c2)N[C@H]1CCc1ccccc1	-2.7	2.2	nt	-0.3	0.0	nt	23
Cc1cc(OCC(=O)Nc2cccnc2)c2c(C)cc(=O)oc2c1	-58	8.3	nt	-1.4	0.7	0.67	4
CCOC(=O)Cc1[nH]nc2c1C(c1ccsc1)C(C#N)=C(N)O2 (stereo not drawn)	0.6	8.1	-4%	0.8	0.2	0.67	9
O=C(N/N=C/C=C/c1ccc([N+](=O)[O-])cc1)c1cccs1	nt	56*	-6%	1.5	-0.1	nt	-6
COc1cccc(C(=O)Nc2ccc3nc4n(c(=O)c3c2)CCCC4)c1	1.8	2.5	-7%	-0.3	-4.8	0.67	-1
CC(SC(C)C(=O)NN=Cc1cccc(F)c1)C(=O)NN=Cc1cccc(F)c1 (stereo not drawn)	-0.7	3.1	-5%	nt	nt	0.67	2
C/C(=N\NC(=O)NC1CCCCC1)c1ccco1	nt	1.7	-3%	1.9	-0.1	nt	3
CC(C)(C)C(=O)NC(=S)Nc1ccc(S(=O)(=O)Nc2nccs2)cc1	4.0	0.8	nt	6.2	-0.5	0.65	-2
Cc1ccc2c(c1)nnc1nnc(SCC(=O)O)n12	8.1	-9.3	29%	0.3	-0.1	0.68	0
